Source: PubChem BioAssay (several laboratories)
ALR inh – inhibitors of human sulfhydryl oxidase ALR. P55789. purified ALR, DTT oxidation, H2O2 HRP-luminol luminescence. inhibition, % (no concentration beside the values). actives 3.8% (n = 290,000);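 active = mean and each replicate at 75% or more; inconclusive = only one of the two met; inactive = neither met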;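 note: stock transfer was 7.5 nL into about 7.5 µL; 0% = neutral wells and 100% = wells with inactivated enzyme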
AF4-AF9 inh – MLL-AF4/AF9 protein interaction inhibition; AlphaScreen, biotin-AF4 peptide binding to FLAG-AF9; inhibition, % at 10 µM; actives 0.47% (n = 350,000); AID 651704;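 active = every replicate reaching a set inhibition limit, whatever the replicate mean, cut at about 25% in these data; inconclusive = mean inhibition reaches that limit but some replicates miss it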;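 note: 0% = plate neutral control median and 100% = total signal loss; the record names both 10 and 1 µM as test concentration; the first replicate is given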
Target sequence (P42568 whole entry, looked up): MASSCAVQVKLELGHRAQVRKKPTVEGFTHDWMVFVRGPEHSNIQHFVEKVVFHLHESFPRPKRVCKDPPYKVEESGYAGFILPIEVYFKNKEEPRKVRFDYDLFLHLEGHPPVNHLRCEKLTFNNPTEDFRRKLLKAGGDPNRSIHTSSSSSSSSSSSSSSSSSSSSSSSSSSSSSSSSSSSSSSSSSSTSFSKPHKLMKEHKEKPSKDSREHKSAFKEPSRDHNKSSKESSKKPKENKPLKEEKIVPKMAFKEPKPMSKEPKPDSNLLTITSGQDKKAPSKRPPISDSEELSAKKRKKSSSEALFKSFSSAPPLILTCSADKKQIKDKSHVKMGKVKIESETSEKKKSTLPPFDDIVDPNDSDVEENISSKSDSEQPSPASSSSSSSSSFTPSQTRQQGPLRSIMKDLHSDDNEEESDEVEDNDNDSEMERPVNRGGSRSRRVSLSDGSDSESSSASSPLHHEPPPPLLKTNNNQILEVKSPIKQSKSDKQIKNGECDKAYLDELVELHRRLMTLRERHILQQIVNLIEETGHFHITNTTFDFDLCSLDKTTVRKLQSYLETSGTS
FGF22 binding – shifts melting point of recombinant human FGF22. actives 1.5% (n = 340,000). Q9HCT0. calls only at 9.99 µM. recombinant FGF22 thermal shift, SYPRO orange fluorescence; percent of sucrose octasulfate shift, DMSO zero. AID 651658;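 active = melting point raised past a set limit in the mean and every replicate; inconclusive = no clear call; three in four hits are not shown here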
HNF4A DNA FP – change in binding of human HNF4 alpha to DNA | HNF4a-FITC DNA binding, fluorescence polarization, 1 h | actives 0.3% (n = 360,000) | activity change, % at 10 µM | P41235 | AID 1224865; in the data active = activity change above about 30%, passing the limit was not always enough;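 note: controls were the assay level and a saturating level of protein; the project sought stronger binding though the title names inhibitors; some compounds called inactive have numbers as strong as hits; positive values seem to mean higher polarization but the record does not say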
Target sequence (P41235 whole entry, looked up): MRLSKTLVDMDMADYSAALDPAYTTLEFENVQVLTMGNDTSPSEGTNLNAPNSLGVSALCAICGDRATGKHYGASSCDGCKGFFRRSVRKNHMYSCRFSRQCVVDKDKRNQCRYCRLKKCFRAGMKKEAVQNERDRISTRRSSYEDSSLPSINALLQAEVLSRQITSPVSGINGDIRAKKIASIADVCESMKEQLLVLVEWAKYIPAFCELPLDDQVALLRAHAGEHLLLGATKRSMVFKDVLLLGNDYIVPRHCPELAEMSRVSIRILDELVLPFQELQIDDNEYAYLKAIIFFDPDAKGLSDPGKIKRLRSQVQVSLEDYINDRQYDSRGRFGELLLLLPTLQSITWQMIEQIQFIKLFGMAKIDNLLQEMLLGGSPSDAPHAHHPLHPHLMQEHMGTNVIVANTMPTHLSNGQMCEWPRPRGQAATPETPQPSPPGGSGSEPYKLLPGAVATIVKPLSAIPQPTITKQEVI
Vif A3G – inhibitors of Vif binding to APOBEC3G peptide, primary screen, biochemical, TR-FRET, GST-Vif 1-94, biotin-A3G peptide, dose response retest (AID 1117319); inhibition, %, or IC50 in µM where a hit was titrated; TR-FRET GST-Vif / biotin-A3G peptide binding; higher % means a stronger effect; test concentration not given here; strong numbers were not always called active; actives 0.57% (n = 260,000);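 active = above the screen mean plus three standard deviations and confirmed in dose response; inconclusive = results disagree or hit not tested in dose response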;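 note: Vif residues 1-94 fused to GST binding biotinylated APOBEC3G peptide 110-148; 0% = full assay without inhibitor and 100% = GST in place of GST-Vif; retest series ran down from 100 µM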
rRNA inh HTS – inhibitors of bacterial rRNA selective over humanized ribosomes | E. coli WT GFP vs humanized-ribosome RFP mutants, fluorescence, 24 h; hits give low values; DMSO median 0, no signal -100 | GFP signal change (wild-type ribosome), % (concentration not given with the values) | actives 1.6% (n = 350,000) | AID 720706;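 active = significant combined selectivity score with lowered wild-type GFP, culture density cut under 30%, mutant RFP and density less affected; inactive = any of these conditions unmet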; note: one replicate is shown; some compounds called inactive have numbers as strong as hits
E coli growth – blocks Escherichia coli growth; OD600, 23 h; hits give low values; OD600 absorbance (no concentration beside the values); actives 0.21% (n = 330,000); AID 1053175;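 active = OD600 absorbance below the run mean of sample wells minus 3.6 SD, in any replicate, cut at about 0.56 in these data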;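 note: stock transfer was 300 nL into about 60 µL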
rRNA inh HTS OD600 – also measured in rRNA inh HTS; calls as there; OD600 change, %; measured here: OD600 growth;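 optical density of the mix in the first replicate; 0 = DMSO median and -100 = no signal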
rRNA inh HTS RFP – recorded beside rRNA inh HTS, whose call it bears; RFP signal change, %; measured here: RFP humanized mutant strains;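 first replicate; 0 = DMSO median and -100 = no signal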
* marks the source's active call; other numbers are inactive results; i = inactive; u = inconclusive; x = not tested or not shown; + = active, no number. The list is partial (hit frequency here may not be typical).

Preview (13 entries):
Under each structure – ALR inh, AF4-AF9 inh, FGF22 binding, HNF4A DNA FP, Vif A3G, rRNA inh HTS, rRNA inh HTS OD600, rRNA inh HTS RFP, E coli growth
O=C(NC1CCSC1=O)c1ccc(Cl)cc1 (stereo not drawn)
  0, -77, i, 2.1, 3%, 3, 0, -12, 0.71
Clc1ccc(-c2cn3cccnc3n2)cc1Cl
  -5, x, x, 17, 68%, x, x, x, 0.69
NC(=O)CC(NC(=O)c1ccccc1)c1ccc(N2CCC(Br)CC2)c([N+](=O)[O-])c1 (stereo not drawn)
  -1, 0.2, i, -0.1, x, 4, 4, -1.4, 0.64
CN1c2ccccc2C(=O)/C(=C\Nc2ccc(F)cc2)S1(=O)=O
  49, 1.4, i, -1.1, x, x, x, x, 0.7
CCCN1Cc2cccc(C(=O)N3CCN(c4ccc(OC)cc4)CC3)c2C1=O
  42, 8.1, i, 176, 25%, 4, 1, 0.8, 0.65
CCc1nnc(NC(=O)CSc2nnc3c(n2)[nH]c2ccccc23)s1
  -1, -1.4, i, 2.9, 5%, 21, 19, 0.9, 0.74
Cc1ccc(/C=C/C(=O)OCn2nnc3ccccc3c2=O)o1
  -5, -10.0, i, -2.6, 5%, -9, -11, -5.1, 0.68
CS(=O)(=O)c1nsc2nc(=O)c(/C=C3\C=Nc4ccccc43)c(N)n12
  90*, -0.1, i, 1.8, 12%, -13, -9, 2.6, 0.65
CCc1ccc(C(=O)NCc2ccc(Cl)cc2)cc1
  3, x, x, -1.0, x, x, x, x, 0.69
O=C(Cc1ccc(Cl)cc1)Nc1ccc(CN2CCCCC2)cc1
  -11, 0.6, i, 5.2, -6%, 2, 4, 0.8, 0.68
COC(=O)c1cc(C(=O)Nc2nnc(C3CC3)s2)cc([N+](=O)[O-])c1
  -4, x, x, 7.0, 19%, x, x, x, 0.68
O=C(c1ccccc1)N1C[C@H]2[C@@H](c3ccccc31)[C@@H](CO)N2Cc1cc(F)ccc1F
  x, 1.1, i, x, x, -9, -13, 0.3, x
Cc1cc(C(=O)N/N=C/c2c[nH]c3ccccc23)cs1
  22, -0.8, +, -3.4, x, 1, -1, -1.9, x

Main list, from the start:
Under each structure – ALR inh, AF4-AF9 inh, FGF22 binding, HNF4A DNA FP, Vif A3G, rRNA inh HTS, rRNA inh HTS OD600, rRNA inh HTS RFP, E coli growth
O=C(NC1CCSC1=O)c1ccc(Cl)cc1 (stereo not drawn)
  0, -77, i, 2.1, 3%, 3, 0, -12, 0.71
Clc1ccc(-c2cn3cccnc3n2)cc1Cl
  -5, x, x, 17, 68%, x, x, x, 0.69
NC(=O)CC(NC(=O)c1ccccc1)c1ccc(N2CCC(Br)CC2)c([N+](=O)[O-])c1 (stereo not drawn)
  -1, 0.2, i, -0.1, x, 4, 4, -1.4, 0.64
CN1c2ccccc2C(=O)/C(=C\Nc2ccc(F)cc2)S1(=O)=O
  49, 1.4, i, -1.1, x, x, x, x, 0.7
CCCN1Cc2cccc(C(=O)N3CCN(c4ccc(OC)cc4)CC3)c2C1=O
  42, 8.1, i, 176, 25%, 4, 1, 0.8, 0.65
CCc1nnc(NC(=O)CSc2nnc3c(n2)[nH]c2ccccc23)s1
  -1, -1.4, i, 2.9, 5%, 21, 19, 0.9, 0.74
Cc1ccc(/C=C/C(=O)OCn2nnc3ccccc3c2=O)o1
  -5, -10.0, i, -2.6, 5%, -9, -11, -5.1, 0.68
CS(=O)(=O)c1nsc2nc(=O)c(/C=C3\C=Nc4ccccc43)c(N)n12
  90*, -0.1, i, 1.8, 12%, -13, -9, 2.6, 0.65
CCc1ccc(C(=O)NCc2ccc(Cl)cc2)cc1
  3, x, x, -1.0, x, x, x, x, 0.69
O=C(Cc1ccc(Cl)cc1)Nc1ccc(CN2CCCCC2)cc1
  -11, 0.6, i, 5.2, -6%, 2, 4, 0.8, 0.68
COC(=O)c1cc(C(=O)Nc2nnc(C3CC3)s2)cc([N+](=O)[O-])c1
  -4, x, x, 7.0, 19%, x, x, x, 0.68
O=C(c1ccccc1)N1C[C@H]2[C@@H](c3ccccc31)[C@@H](CO)N2Cc1cc(F)ccc1F
  x, 1.1, i, x, x, -9, -13, 0.3, x
Cc1cc(C(=O)N/N=C/c2c[nH]c3ccccc23)cs1
  22, -0.8, +, -3.4, x, 1, -1, -1.9, x
CCS(=O)(=O)N1CCN=C1SCc1ccccc1
  -5, 0.5, i, 1.8, 6%, 3, -3, 1.5, 0.7
CCOc1ccc(C(=O)Nc2ccncc2)cc1
  -1, 5.8, i, 2.6, 5%, 3, 9, -2.1, 0.65
O=C(N/N=C/c1cccc(OC(=O)c2ccc([N+](=O)[O-])cc2)c1)c1cccnc1
  -1, -2.7, i, -1.4, 4%, 4, 7, -0.1, x
Cc1nn(CC(=O)NCc2cccnc2)c(=O)c2ccccc12
  -9, x, x, -2.5, 5%, x, x, x, 0.69
O=[N+]([O-])c1ccc(N2CCCCCC2)c(S(=O)(=O)N2CCCCC2)c1
  0, x, x, -1.5, -5%, x, x, x, 0.75
O=C(COC(=O)/C=C/c1ccc(S(=O)(=O)N2CCOCC2)cc1)NC1CCCCCCC1
  3, -0.4, i, -0.1, x, 11, 8, 0.3, 0.65
COc1ccc(CN(C)C[C@@H]2Oc3c(NS(=O)(=O)c4ccc(C)cc4)cccc3C(=O)N([C@@H](C)CO)C[C@H]2C)cc1
  x, 1.3, i, x, x, 0, 3, -0.6, x
COc1ccc(/C=C/C(=O)OCC(=O)NC2CCCCCC2)cc1OC
  x, -2.1, i, 3.2, -1%, x, x, x, 0.7
O=C(C1CCCN(Cc2ccccc2Br)C1)N1CCCCC1 (stereo not drawn)
  -13, x, x, -0.1, -3%, x, x, x, 0.69
O=C(Cn1cc2c(n1)CCCCC2)N1CCc2ccccc2C1
  8, -7.6, i, 1.6, 1%, -3, 3, 1.4, 0.74
CCN(CC)CCCNC(=O)Cn1cnc2sc(C)c(S(=O)(=O)N3CCC(C)CC3)c2c1=O
  -1, 0.5, i, -0.4, x, 0, 5, -1.8, 0.73
CC(=O)Nc1cc2c3c(cccc3c1)-c1ccccc1-2
  x, -2.2, i, 3.0, -2%, -18, -23, -12, 0.69
Cc1ccccc1CCNC(=O)c1ccc(Cl)c(S(=O)(=O)N2CC(C)OC(C)C2)c1 (stereo not drawn)
  x, 0.2, i, 14, 87%, 0, 12, 7.0, 0.65
O=C(NCCS(=O)(=O)NCc1ccc2c(c1)OCO2)c1ccccc1
  -8, -1.7, x, 1.8, x, 6, 6, 0.2, x
NC(=O)c1ccccc1OCC(=O)Nc1ccc2c(c1)CCC2
  16, 3.0, i, 2.6, x, x, x, x, 0.65
CO[C@H](CN(C)S(=O)(=O)c1ccc(Cl)cc1)[C@H](C)CN([C@@H](C)CO)S(=O)(=O)c1cccc(Cl)c1
  x, 0.5, i, x, x, 1, -22, 4.0, x
Cc1nc2c(-c3ccc(F)cc3)c(C)nn2c(C)c1CCC(=O)NC(C)CCc1ccco1 (stereo not drawn)
  2, 0.8, i, 1.3, 9%, -8, -20, 5.2, 0.7

Single records, as listed above. Order of screens: ALR inh	AF4-AF9 inh	FGF22 binding	HNF4A DNA FP	Vif A3G	rRNA inh HTS	rRNA inh HTS OD600	rRNA inh HTS RFP	E coli growth
Clc1ccc(-c2cn3cccnc3n2)cc1Cl is entered as -5	x	x	17	68%	x	x	x	0.69
O=C(NCCS(=O)(=O)NCc1ccc2c(c1)OCO2)c1ccccc1 is entered as -8	-1.7	x	1.8	x	6	6	0.2	x

New compounds follow
Under each structure – ALR inh, AF4-AF9 inh, FGF22 binding, HNF4A DNA FP, Vif A3G, rRNA inh HTS, rRNA inh HTS OD600, rRNA inh HTS RFP, E coli growth
O=C(Cc1ccccn1)NCC[C@H]1CC[C@@H](NC(=O)c2ccccc2F)[C@H](CO)O1
  x, -2.5, i, x, x, 2, 2, 0.1, x
COc1ccc(CNC(=O)C2CC(=O)N(c3ccc(OCC(=O)N4CCCCC4)cc3)C2)cc1 (stereo not drawn)
  3, x, x, -2.1, 9%, x, x, x, 0.72
COc1ccccc1-c1sc2ccccc2c1-c1ccccc1OC
  -6, x, i, -0.9, x, 3, 16, -1.6, 0.72
COc1ccc(CN(C)C(=O)C2CC(=O)N(c3ccc4c(c3)OCCO4)C2)c(OC)c1 (stereo not drawn)
  3, 3.5, i, 5.0, x, 2, -2, 0.0, 0.71
COc1ccc(C(C(=O)NC2CCCC2)N(C(=O)c2ccco2)c2ccccc2C(C)=O)cc1OC (stereo not drawn)
  -1, 2.6, i, 5.0, -8%, -2, 5, 1.1, 0.67
C[C@H]1CCCCO[C@@H](CN(C)Cc2ccc(C(F)(F)F)cc2)[C@@H](C)CN([C@@H](C)CO)C(=O)c2cc(NS(=O)(=O)c3ccc(F)cc3)ccc2O1
  x, 1.2, i, x, x, 6, -9, 4.6, x
COc1cccc(C(=O)N2CCN(c3ccccn3)CC2)c1
  14, 3.1, i, -2.1, x, 1, 2, -4.8, 0.64
Cc1ccc(SC[C@H](CC(C)C)N2CCN(C)CCC2=O)cc1
  x, -7.5, i, 0.4, 2%, -4, -7, 7.3, x
COc1cc(OC)c(OC)cc1CN1CCCC(C(=O)N2CCCC2)C1 (stereo not drawn)
  -10, 2.8, i, -3.0, -5%, 10, 4, -1.4, 0.69
COc1ccc(N(C(=O)COc2ccccc2)C2C=CS(=O)(=O)C2)cc1 (stereo not drawn)
  3, 4.0, i, 2.9, 2%, 13, -1, 1.8, 0.68
Cc1ccccc1C(=O)NC1CCN(Cc2nnnn2Cc2ccccc2)CC1
  1, x, x, -1.6, 3%, x, x, x, 0.74
O=c1cc(-c2ccccc2Cl)c2c([nH]1)CCC2
  -5, 2.1, i, -0.9, 4.3µM*, x, x, x, 0.77
O=C1CC(c2ccccc2)CC(O)=C1C=NCc1ccco1 (stereo not drawn)
  -1, x, x, 0.8, 17%, x, x, x, 0.7
O=C(Nc1cccc(C(=O)O)c1)/C(=C\c1ccc2c(c1)OCO2)NC(=O)c1ccc(Br)o1
  -12, -4.6, i, 3.7, u, 9, 18, 1.2, 0.59
O=C(c1ccc2c(c1)OCO2)N1CC[C@@H]2[C@H]1c1cc(-c3ccccc3)ccc1N[C@@H]2CO
  x, 1.1, i, x, x, -3, 7, 4.1, x
Cc1ccc(S(=O)(=O)Nc2cccc3c2O[C@H](CN(C)Cc2ccncc2)[C@@H](C)CN([C@H](C)CO)C3=O)cc1
  x, -17, i, x, x, -1, -4, 0.3, x
Cc1cccc(C(=O)N(Cc2ccc(C)o2)C2CCS(=O)(=O)C2)c1 (stereo not drawn)
  4, 0.7, i, -1.1, 6%, 1, 2, -2.9, 0.68
CC(C)C(NS(=O)(=O)c1ccc(Br)s1)C(=O)O (stereo not drawn)
  x, x, x, -1.2, 2%, x, x, x, 0.74
OCc1cccc(Nc2ncnc3sc4c(c23)CCCCC4)c1
  -4, -2.0, i, 1.2, x, -9, -9, 1.7, 0.64
